Compound activity deposited in PubChem by several laboratories.
B2AR ag = human beta-2 adrenergic receptor agonism by FAP; P07550; actives 0.43% (n = 340,000); Am2.2-beta2AR cells, FAP receptor internalization, flow cytometry; reference of the scale not given here; response, % (test concentration not listed);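 active = response above a set limit, near 3 SD of response in nonfluorescent compounds, cut at about 42% in these data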;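 note: stock transfer was 100 nL into about 11 µL; a reference agonist was the positive control; negative values mostly stem from fluorescent compounds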
rRNA inh HTS = inhibitors of bacterial rRNA selective over humanized ribosomes; E. coli WT GFP vs humanized-ribosome RFP mutants, fluorescence, 24 h; hits give low values; DMSO median 0, no signal -100; GFP signal change (wild-type ribosome), % (test concentration not listed); AID 720706; actives 1.6% (n = 350,000);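 active = significant combined selectivity score with lowered wild-type GFP, culture density cut under 30%, mutant RFP and density less affected; inactive = any of these conditions unmet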; note: one replicate is shown; some compounds called inactive have numbers as strong as hits
UCH37 DUB inh = human UCH37 deubiquitinating enzyme inhibition. Q9Y5K5. purified proteasome/UCH37, Ub-AMC cleavage fluorescence. inhibition, % (no concentration beside the values). actives 0.33% (n = 330,000);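 active = mean of two replicates above 20%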;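 note: 0% = compound-free wells with enzyme and 100% = wells lacking proteasome; stock transfer was 100 nL into about 20 µL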
Target sequence (Q9Y5K5 whole entry, looked up): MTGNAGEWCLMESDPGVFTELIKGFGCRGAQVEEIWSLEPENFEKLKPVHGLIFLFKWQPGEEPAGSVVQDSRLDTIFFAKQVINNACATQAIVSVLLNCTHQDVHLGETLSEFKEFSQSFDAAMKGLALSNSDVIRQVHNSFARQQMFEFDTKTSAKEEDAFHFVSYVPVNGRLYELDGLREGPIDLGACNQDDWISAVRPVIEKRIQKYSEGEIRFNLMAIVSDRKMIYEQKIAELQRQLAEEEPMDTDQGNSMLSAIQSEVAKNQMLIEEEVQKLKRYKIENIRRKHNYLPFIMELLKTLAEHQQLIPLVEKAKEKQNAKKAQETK
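Material: Human UCH37 enzyme supplied as purified proteasome complex | Schedule: 30 min compound-proteasome preincubation then 25 min substrate reaction, room temperature | Detection: AMC fluorescence from Ub-AMC cleavage, excitation 355 nm, emission 460 nm | Benchmarks: Wells without proteasome as full block, compound-free enzyme plus substrate as uninhibited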
Ecoli growth = inhibitors of Escherichia coli growth | OD600, 23 h; hits give low values | OD600 absorbance (test concentration not listed) | actives 0.21% (n = 330,000) | AID 1053175;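 active = OD600 absorbance below the run mean of sample wells minus 3.6 SD, in any replicate, cut at about 0.56 in these data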;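 note: stock transfer was 300 nL into about 60 µL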
HNF4A DNA FP = change in binding of human HNF4 alpha to DNA; P41235; HNF4a-FITC DNA binding, fluorescence polarization, 1 h; activity change, % at 10 µM; actives 0.3% (n = 360,000); AID 1224865; in the data active = activity change above about 30%, passing the limit was not always enough;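 note: controls were the assay level and a saturating level of protein; the project sought stronger binding though the title names inhibitors; some compounds called inactive have numbers as strong as hits; positive values seem to mean higher polarization but the record does not say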
Target sequence (P41235 whole entry, looked up): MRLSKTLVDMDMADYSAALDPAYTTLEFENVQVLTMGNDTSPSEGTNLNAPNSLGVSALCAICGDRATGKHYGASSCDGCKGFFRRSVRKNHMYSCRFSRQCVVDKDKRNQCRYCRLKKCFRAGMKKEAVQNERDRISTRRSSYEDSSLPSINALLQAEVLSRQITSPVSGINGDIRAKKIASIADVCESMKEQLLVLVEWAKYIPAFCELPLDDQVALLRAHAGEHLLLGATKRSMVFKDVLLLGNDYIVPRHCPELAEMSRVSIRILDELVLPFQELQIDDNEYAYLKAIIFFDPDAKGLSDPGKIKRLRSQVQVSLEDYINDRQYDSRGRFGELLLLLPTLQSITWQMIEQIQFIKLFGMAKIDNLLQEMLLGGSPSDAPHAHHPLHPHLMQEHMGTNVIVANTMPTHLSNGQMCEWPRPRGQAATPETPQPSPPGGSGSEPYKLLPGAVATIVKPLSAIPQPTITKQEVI
FGF22 binding = FGF22 (human) thermal shift binding; Q9HCT0; recombinant FGF22 thermal shift, SYPRO orange fluorescence; percent of sucrose octasulfate shift, DMSO zero; calls only at 9.99 µM; actives 1.5% (n = 340,000); AID 651658;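 active = melting point raised past a set limit in the mean and every replicate; three in four hits are not shown here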
ALR H2O2 inh = human ALR oxidase inhibition via reduced H2O2. P55789. purified ALR, DTT oxidation, H2O2 HRP-luminol luminescence. inhibition, % (no concentration beside the values). actives 3.8% (n = 290,000). AID 485317;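 active = mean and each replicate at 75% or more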;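 note: stock transfer was 7.5 nL into about 7.5 µL; 0% = neutral wells and 100% = wells with inactivated enzyme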
Target sequence (P55789 whole entry, looked up): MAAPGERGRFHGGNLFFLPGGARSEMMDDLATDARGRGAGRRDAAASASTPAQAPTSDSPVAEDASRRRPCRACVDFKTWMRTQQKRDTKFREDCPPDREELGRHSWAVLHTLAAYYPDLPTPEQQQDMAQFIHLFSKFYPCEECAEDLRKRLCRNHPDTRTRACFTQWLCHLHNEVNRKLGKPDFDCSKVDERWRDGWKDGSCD
rRNA inh HTS OD600 = second read-out of rRNA inh HTS, no call of its own (marks repeat the call); OD600 change, %; measured here: OD600 growth;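 optical density of the mix in the first replicate; 0 = DMSO median and -100 = no signal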
rRNA inh HTS RFP = further read-out of rRNA inh HTS, marked with its call; RFP signal change, %; measured here: RFP humanized mutant strains;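 first replicate; 0 = DMSO median and -100 = no signal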
* marks the source's active call; other numbers are inactive results; i = inactive; nt = no result given. An excerpt, so the mix of outcomes need not match the whole.

Start of the listing, in advance (two entries):
no. | smiles | B2AR ag | rRNA inh HTS | rRNA inh HTS OD600 | rRNA inh HTS RFP | UCH37 DUB inh | Ecoli growth | HNF4A DNA FP | FGF22 binding | ALR H2O2 inh
1 | O=C(NC1C=CS(=O)(=O)C1)c1sc2ccccc2c1Cl (stereo unspecified) | 1 | nt | nt | nt | 0.8 | 0.65 | 9.1 | nt | 9
2 | Cc1ccc(CC2(c3ccccc3)NC(=O)NC2=O)cc1 (stereo unspecified) | -7 | 8 | 3 | 2.8 | 2.8 | 0.69 | -3.1 | i | nt

Results, repeating the preview:
no. | smiles | B2AR ag | rRNA inh HTS | rRNA inh HTS OD600 | rRNA inh HTS RFP | UCH37 DUB inh | Ecoli growth | HNF4A DNA FP | FGF22 binding | ALR H2O2 inh
1 | O=C(NC1C=CS(=O)(=O)C1)c1sc2ccccc2c1Cl (stereo unspecified) | 1 | nt | nt | nt | 0.8 | 0.65 | 9.1 | nt | 9
2 | Cc1ccc(CC2(c3ccccc3)NC(=O)NC2=O)cc1 (stereo unspecified) | -7 | 8 | 3 | 2.8 | 2.8 | 0.69 | -3.1 | i | nt
3 | COc1ccc(N2CCN(C(=O)Cc3csc(NC(=O)Nc4ccccc4OC)n3)CC2)cc1 | 12 | 2 | -13 | 14 | 1.7 | 0.72 | -5.0 | i | nt
4 | Cc1c(C)c2ccc(OC(C)C(=O)NCCCn3ccnc3)c(C)c2oc1=O (stereo unspecified) | -10 | 11 | 1 | 5.4 | -47 | 0.68 | 3.4 | i | -1
5 | Cc1c(Nc2ncnc3nc[nH]c23)c(=O)n(-c2ccccc2)n1C | 5 | -14 | -27 | 0.2 | 5.3 | 0.75 | -0.8 | i | nt
6 | COc1ccc(C2SCC(=O)N2c2ccc(OC)cc2)cc1 (stereo unspecified) | -1 | 4 | 5 | 1.6 | 3.6 | 0.67 | 0.5 | i | 41
7 | CCN(C(=O)CN1CC(C)OC(C)C1)c1c(N)n(Cc2ccccc2)c(=O)[nH]c1=O (stereo unspecified) | 1 | 10 | 8 | -2.1 | 3.5 | 0.68 | 4.2 | i | -2
8 | O=C(CCC(=O)N1CCCC1)Nc1ccc(Cl)c(Cl)c1 | 3 | 3 | 18 | -1.4 | 2.7 | 0.67 | 2.4 | i | -1
9 | CN(CC(=O)Nc1ccc(Cl)c(Cl)c1)C(=O)/C=C/c1ccc(F)cc1 | 1 | nt | nt | nt | 7.5 | 0.69 | 0.9 | nt | -8
10 | COc1ccccc1-c1c(C(F)(F)F)oc2cc(OC(=O)c3ccccc3[N+](=O)[O-])ccc2c1=O | 8 | nt | nt | nt | -0.3 | 0.73 | 1.4 | nt | -8
11 | COC(=O)c1cn(CC(=O)NC2CCCCCC2)c2ccccc12 | 4 | nt | nt | nt | 5.0 | 0.79 | -1.2 | nt | 0
12 | Cc1cc(C)c2[nH]c(=O)c(CN(Cc3cccnc3)C(=S)NCCCN(C)C)cc2c1 | -2 | 8 | -9 | -0.8 | -7.4 | 0.66 | 3.5 | i | 2
13 | C[C@@H]1CN(C(=O)c2nc3ccc(Cl)cn3c2CN[C@H]2CCCCNC2=O)C[C@H](C)O1 | 1 | nt | nt | nt | 0.2 | 0.69 | 2.1 | nt | -2
14 | Cc1ccc(C)c(OCC(=O)N2CCN(c3ncccn3)CC2)c1 | 1 | 6 | 0 | -3.6 | -2.2 | 0.7 | 2.2 | i | 1
15 | COCCNC(=O)C1(C)CCCN(C(=O)c2c(F)ccc(C)c2F)C1 (stereo unspecified) | nt | 15 | 14 | -1.2 | nt | nt | -1.0 | i | nt
16 | CCCCN1C(=O)C(CC(=O)NC2CCCC2)CC(C(=O)N(C(C)C)C(C)C)=C1C (stereo unspecified) | nt | 7 | 6 | 0.3 | nt | nt | 0.9 | i | nt
17 | CC(C)OC(=O)CSc1nc2ncc(Cl)cc2[nH]1 | -7 | nt | nt | nt | 5.1 | 0.72 | 3.1 | nt | -1
18 | O=C(c1ccc(S(=O)(=O)N2CCOCC2)cc1)N1CCN(S(=O)(=O)c2ccc(Cl)s2)CC1 | 6 | 5 | -1 | -0.8 | 3.0 | 0.68 | -2.3 | i | -5
19 | c1cncc(-c2nn3cnnc3s2)c1 | -1 | nt | nt | nt | 1.1 | 0.65 | 1.8 | nt | -3
20 | COc1cc(OC)cc(C(=O)Nn2cnnc2)c1 | -4 | 15 | 15 | 0.1 | 3.4 | 0.65 | 1.0 | i | -6
21 | CCn1nc(C)c(CNC(=O)CCc2nnc(Cc3c[nH]c4ccccc34)o2)c1C | -4 | 16 | 13 | 0.2 | 0.5 | 0.64 | -0.5 | i | -4
22 | C/C(=N\NC(=O)c1cc(-c2ccco2)nc2ccccc12)c1cccnc1 | -3 | 12 | 20 | -4.1 | nt | nt | -19 | i | 18
23 | CSc1ncccc1C(=O)OCc1ccc([N+](=O)[O-])cc1 | 2 | 3 | -2 | -6.7 | 5.5 | 0.72 | 4.9 | i | -2
24 | Cc1cccc(CNc2ccc(S(=O)(=O)N3CCCCC3)cc2)c1 | -2 | -19 | -26 | -3.0 | 3.1 | 0.72 | 0.0 | i | -2
25 | CCN(C(=O)COc1ccc2ccc(=O)oc2c1)C1CCCCC1 | -1 | -10 | -2 | 0.0 | -41 | 0.69 | -3.2 | i | 1
26 | CC(=O)Oc1ccc(-c2csc(Nc3ccccn3)n2)cc1 | nt | -4 | -3 | -3.6 | nt | nt | 6.6 | i | nt
27 | O=C(CNS(=O)(=O)c1ccc(F)c(Cl)c1)N1CCCCCC1 | -7 | 6 | 7 | 1.3 | 1.5 | 0.62 | -2.2 | i | -15
28 | Cc1ccc(CCNC(=O)Cn2ccc3cc(S(=O)(=O)N4CCCC4)ccc32)cc1 | 10 | 9 | 11 | -1.6 | 6.3 | 0.7 | -0.7 | i | 1
29 | COc1ccc(NC(=O)CSc2nc3ccccc3c(=O)n2CCC(=O)N2CCCCC2)cc1 | 3 | nt | nt | nt | 4.1 | 0.65 | -1.2 | nt | -18
30 | CCCCCCCCCCCCCC(=O)NO | -2 | 4 | 11 | 0.2 | nt | nt | -1.5 | i | nt
31 | Cc1ccc(OCC(=O)NNC(=O)C2CSC3(C)CCC(=O)N23)cc1 (stereo unspecified) | -1 | 0 | -3 | -2.0 | 1.0 | 0.7 | -2.3 | i | -1
32 | Cc1cc(C)c(C)c(S(=O)(=O)N2CCC(C(=O)Nc3ccncc3)CC2)c1C | 3 | -49 | -74 | -11 | nt | nt | -0.2 | i | -3
33 | CN(C)S(=O)(=O)N1CCCC(C(=O)c2ccc(C(F)(F)F)cc2)C1 (stereo unspecified) | -10 | 7 | 1 | -1.9 | 1.9 | 0.64 | -2.3 | i | 0
34 | CC(C)CCN1CCN=C1Nc1ccccc1 | -1 | 10 | 10 | 2.0 | 0.9 | 0.77 | 5.4 | i | 4
35 | Cc1cccc(C)c1NC(=O)c1csc([C@H]2C[C@H](O)[C@@H](CO)O2)n1 | nt | 4 | 14 | 2.6 | nt | nt | 2.0 | i | nt
36 | COC(=O)c1ccc(CSc2nnc(Nc3cccc(OC)c3)s2)o1 | 7 | nt | nt | nt | 4.7 | 0.7 | 3.2 | nt | -3
37 | C=CCc1cccc(Cl)c1OCCCNC1CCCC1 | 7 | 4 | -10 | 14 | 3.5 | 0.64 | -0.8 | i | nt
38 | Cc1c(Nc2nc3ccccc3nc2NS(=O)(=O)c2ccccc2)c(=O)n(-c2ccccc2)n1C | 9 | 1 | 0 | -6.2 | 7.3 | 0.68 | 0.1 | i | 8
39 | CCOc1ccc(/C(O)=C2/C(=O)C(=O)N(CCCn3ccnc3)C2c2cccs2)cc1Cl (stereo unspecified) | -8 | nt | nt | nt | 11 | 0.72 | 2.3 | nt | 2
40 | O=C(c1ccc(S(=O)(=O)N2CCOCC2)cc1)N(c1ccc(F)cc1)C1C=CS(=O)(=O)C1 (stereo unspecified) | -2 | 8 | -2 | 0.4 | 4.2 | 0.7 | 1.1 | i | -4
41 | O=C(Nc1cc(C(F)(F)F)ccc1N1CCOCC1)c1cccs1 | -14 | nt | nt | nt | -2.6 | 0.72 | -1.9 | nt | 0
42 | COc1ccc(C(=O)N2CCOC2CNC(=O)C(=O)NCCc2ccccc2OC)cc1 (stereo unspecified) | -2 | 3 | 4 | -2.2 | 0.7 | 0.72 | -1.3 | i | 7
43 | Cc1c(NC(=O)c2ccccc2NS(=O)(=O)c2ccc(Br)cc2)c(=O)n(-c2ccccc2)n1C | 3 | nt | nt | nt | 3.8 | 0.7 | 0.4 | nt | -10
44 | O=C(NCCCN1CCCC1=O)c1ccc2c(=O)n(-c3ccccc3F)c(=S)[nH]c2c1 | -6 | 8 | 17 | -1.2 | -21 | 0.7 | -1.6 | i | 34
45 | Cc1cc(-c2ccccc2)nc2cc(C(N)=O)nn12 | 7 | nt | nt | nt | -38 | 0.76 | 0.7 | nt | 4
46 | O=C(NCCc1ccccc1)c1cnc2n(c1=O)CCS2 | -5 | 22 | 11 | -0.4 | -0.4 | 0.65 | -2.0 | i | -5
47 | O=C(NCCCN1CCCC1=O)c1ccc(S(=O)(=O)Nc2ccccc2)cc1 | -3 | 5 | -6 | 1.6 | 4.0 | 0.67 | 0.3 | i | -10
48 | O=C(COC(=O)C1(c2ccccc2F)CCCC1)N1CCc2ccccc21 | -8 | nt | nt | nt | 2.8 | 0.7 | -0.5 | nt | 0
49 | CCOC(=O)c1ccc(S(=O)(=O)NCC(c2ccc(N(C)C)cc2)c2c[nH]c3ccccc23)cc1 (stereo unspecified) | 4 | 2 | 7 | 8.2 | 2.7 | 0.73 | -1.4 | i | -5
50 | N#CCOC(=O)[C@H](Cc1c[nH]c2ccccc12)NS(=O)(=O)c1ccc(Cl)cc1 | 11 | 7 | 11 | 4.7 | 1.5 | 0.67 | -3.9 | i | nt
51 | CCOC(=O)c1ccc(NC(=O)Nc2ccc(F)cc2)cc1 | 2 | nt | nt | nt | -0.4 | 0.58 | -0.7 | nt | -9
52 | O=C1NC[C@@H](CCCCN2C[C@H](Cc3ccc(O)cc3)N(CC3CCCCC3)C(=O)C2=O)N(CCC2CCCCC2)C1=O | nt | -53 | -77 | -15 | nt | nt | -1.9 | i | nt
53 | Cc1nn(Cc2ccccc2)c(Cl)c1C(=O)OCC#N | 7 | -6 | -10 | -2.1 | 1.5 | 0.67 | 2.4 | i | -7
54 | NC(=O)C1CCN(C(=O)c2ccc(-c3ccccc3)cc2)CC1 | -4 | nt | nt | nt | 0.5 | nt | 1.9 | nt | -2
55 | CCc1cccc(N(CC(=O)NC2CCCCC2)C(=O)c2csnn2)c1 | -4 | 1 | 8 | -2.0 | 1.2 | 0.55 | 2.6 | i | 26
56 | CCOC(=O)c1nc(Nc2ccc(N3CCOCC3)cc2)c2ccccc2n1 | 6 | -1 | 5 | 5.3 | 5.7 | 0.69 | 1.7 | i | 55
57 | CC[C@@H](C)[C@@H]1CN([C@@H](CN2CCC[C@H]2CN2C(N)=NC[C@H]2CC(C)C)C(C)C)C(=N)N1CCc1ccc(Cl)c(Cl)c1 | 2 | -63 | -80 | -20 | 2.7 | 0.13* | 3.0 | i | nt
58 | O=C(Oc1c(-c2ccccc2)c(=O)n2c3c(cccc13)CC2)c1cccc([N+](=O)[O-])c1 | -18 | nt | nt | nt | nt | nt | -0.2 | i | 30
59 | CCc1nc2c(OCCn3cccc3)cccn2c1N(C)C(=O)C1CC1 | nt | 4 | 11 | 0.5 | nt | nt | 1.9 | i | nt
60 | Cc1cc(NC(=O)CSc2nnc(Nc3ccccc3F)s2)no1 | -8 | 9 | 16 | -8.2 | -0.2 | 0.69 | -0.6 | i | -16
